# Compound activity as filed in PubChem.
# HCMV NEC inh: inhibitors of HCMV UL50-UL53 interaction, biochemical, HTRF | HCMV UL50-UL53 nuclear egress complex (human cytomegalovirus) | normalized percent inhibition | inhibition, % (no concentration beside the values) | 190,000 tested, 0.15% active;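 active means both replicates at 50% or more, plus weaker picks with an unusually low signal ratio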;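 further: stock transfer was 100 nL into about 20 µL; 0% = negative control wells and 100% = wells with untagged competitor protein; inactives centre near -12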
# Sa growth 42C: S. aureus growth inhibition at 42 and 30 °C, primary screen, LtaS inhibitor project, RN4220, two temperatures | 170,000 tested, 0.53% active | relative growth, % (concentration not given with the values) | OD600, 20 h, 42 °C; hits give low values;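 active means growth at 42 °C up to 50% and 20 or more points under that at 30 °C, or under 10% at both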;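 further: 300 nL library stock went into each well; scaled to the means of positive and negative controls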
# GIV Gai3 FP: inhibitors of GIV peptide binding to Galpha-i3, primary screen, biochemical, fluorescence polarization, FITC-GIV GBA peptide, rat Galphai3; 90 min; hits give low values; scaled: aluminum fluoride 0%, vehicle 100%; 210,000 tested, 0.42% active; percent of control (FP), % (test concentration not listed); AID 1224905, 2016;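 active means replicate mean at 85% of control or lower, very high polarization wells dropped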;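 further: wells of about 15 µL received 100 nL stock; the first replicate is given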
# Target sequence (P08753 whole entry, looked up): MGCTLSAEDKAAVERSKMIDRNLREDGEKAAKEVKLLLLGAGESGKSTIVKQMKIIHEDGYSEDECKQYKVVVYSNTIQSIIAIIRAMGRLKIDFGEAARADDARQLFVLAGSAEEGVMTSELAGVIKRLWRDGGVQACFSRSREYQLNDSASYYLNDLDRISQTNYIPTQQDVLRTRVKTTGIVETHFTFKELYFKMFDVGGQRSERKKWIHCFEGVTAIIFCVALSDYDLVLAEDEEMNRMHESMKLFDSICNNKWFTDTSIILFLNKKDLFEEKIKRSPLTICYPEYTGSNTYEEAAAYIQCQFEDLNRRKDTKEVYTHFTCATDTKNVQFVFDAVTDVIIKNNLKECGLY
# Sa growth 42C second temp: further read-out of Sa growth 42C, marked with its call; relative growth, %; measured here: growth at 30 °C;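 optical density after 20 h as mean of two plates; 100% = untreated growth and lower means inhibition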
# An asterisk follows results filed as active; . = no result given; & = joins results of further samples. The order is random; any-hit rate near 0.83%.
SMILES | HCMV NEC inh | Sa growth 42C | Sa growth 42C second temp | GIV Gai3 FP
CN(C(=O)COC(=O)c1cccc(N2C(=O)c3ccccc3C2=O)c1)C1CCS(=O)(=O)C1 (stereo not given) | -39 | 84 | 97 | .
COc1ccc(Nc2nc3nonc3nc2N2CCCCCC2)cc1 | -32 | 46 | 43 | .
CC1Oc2ccccc2N(CC(=O)Nc2ccc3c(c2)nc(CCc2ccccc2)n3C)C1=O (stereo not given) | -9 | . | . | 105
Cc1csc(-c2cc3c(ccc4ccccc43)oc2=O)n1 | -10 | 89 | 92 | .
CCNc1nc2cc(Cl)ccc2s1 | -1 | 112 | 70 | 108
Cc1nc2cccnc2n1-c1cc(C(=O)NC2CCCc3ccccc32)ccc1Cl (stereo not given) | -6 | . | . | 107
CCCc1cc(=O)[nH]c2nnc(SC(C)CC)n12 (stereo not given) | . | 119 | 91 | 100&108
Cc1noc(-c2ccc(NC(=O)C(C)(C)C)cc2)n1 | 14 | . | . | 111
CCCn1c(=O)c2ccccc2n2c(SCC(=O)Nc3c(C)cc(C)cc3Cl)nnc12 | 6 | 98 | 92 | .
COc1cnc(SC)n(C)c1=O | -2 | 110 | 83 | .
COc1cc(OC)c(NS(=O)(=O)c2ccc(C)c(C(=O)Nc3nn[nH]n3)c2)cc1Cl | 6 | 103 | 99 | .
C=CCN(CC=C)C(=O)C(C)Oc1ccc(Cl)cc1Cl (stereo not given) | -8 | 98 | 101 | 101
CC1=C(C(=O)NCCN(CC(C)C)CC(C)C)C2(CCN(S(C)(=O)=O)CC2)OC1=O | -23 | . | . | 110
O=C(CSc1nnc(-c2ccco2)n1C1CCCCC1)N1CCNC1=O | 6 | 108 | 105 | .
COC(=O)c1ccc(COc2cccc(Cl)c2)o1 | . | 91 | 79 | 103
COc1ccc2cc3c(N)nn(C(=O)c4cccnc4)c3nc2c1 | -9 | 80 | 99 | 108
COC(=O)c1cc(S(=O)(=O)NCCCN2CCN(c3ccccc3)CC2)c[nH]1 | 8 | 97 | 102 | 99
CCc1ccc(NC(=O)/C=N/O)cc1 | -22 | 86 | 74 | .
Cc1ccc2c(c1)c1c3n2CCN(CCC(=O)O)C3CCC1 (stereo not given) | 7 | 98 | 92 | 102
COc1nc(N)c(C#N)c(-c2ccc(C)cc2)c1C#N | 16 | 103 | 80 | 103
COc1ccc(Cl)cc1C(=O)Nc1ccc(-c2nc3ccccc3s2)c(Cl)c1 | 30 | . | . | 105
O=C(NCc1ccccc1Cl)c1ccc(-n2cnc3cccnc32)cc1 | -12 | 99 | 85 | 98&104
O=C(NCC1(c2ccccc2)CCCC1)c1cc2c(=O)[nH]c3ccccc3c2s1 | . | 100 | 88 | 95
O=C(CSc1c2c(nc3ccccc13)CCC2)Nc1ccc(F)cc1 | 13 | 104 | 104 | 109
CCCCNC(=O)CCSc1nc(-c2ccc3c(c2)OCO3)cc(C(F)(F)F)n1 | -30 | 94 | 97 | 102
N#Cc1ccccc1NC(=O)COC(=O)C1(c2cccc(F)c2)CCCC1 | -30 | 100 | 92 | .
CCOc1ccccc1NC(=O)CSc1nncn1C(C)C | 10 | 96 | 94 | .
CCOC(=O)c1c(NC(=O)CCn2c(=O)oc3ccccc32)sc(C(=O)Nc2ccccc2)c1C | 20 | . | . | 101
COc1ccc(C(=O)CSc2nnc3n2CCN3c2ccc(OC)cc2)cc1 | -41 | . | . | 99
CC(=O)N1CCC2(CC1)OC(=O)C(C)=C2C(=O)N1CCC(C)CC1 | -1 | . | . | 106
CCN(CC)c1cc(C)c2cc(NC(=O)/C=C/c3ccc(C)cc3)ccc2n1 | 3 | 107 | 89 | 102
Cc1ccc(NC(=O)c2oc3ccccc3c2NC(=O)C2CC2)cc1C | -25 | 101 | 93 | 106
Cc1ccc(C(=O)N2N=C(c3ccccc3)CC2c2ccc3c(c2)OCO3)cc1 (stereo not given) | -14 | . | . | 100
CC(C)CCn1c(=O)c2cccnc2n(CC(N)=O)c1=O | -20 | 100 | 88 | 96
Cc1ccc(CN2CCN(C3CCN(C(=O)c4cccnc4)CC3)C(=O)C2=O)cc1 | -26 | . | . | 96
Cc1ccc(-c2nccc(N3CCC(C(=O)NCc4ccc(Br)cc4)CC3)n2)cc1 | 1 | . | . | 110
Clc1ccc(-c2csc3ncnc(NCCc4ccccc4)c23)cc1 | -20 | . | . | 103
COc1ccc(/C=C(\NC(=O)c2ccccc2)C(=O)NC2CCCCC2)cc1 | -8 | 89 | 90 | 102
Nc1ccc(N2CCCCC2)c(C(F)(F)F)c1 | -15 | 121 | 97 | 101
Cc1cc(-c2ccc(C)c(S(=O)(=O)NCc3ccc(Cl)cc3)c2)on1 | . | 90 | 95 | 98
FC(F)(F)c1ccc(N2CCC(n3cccc3)CC2)nc1 | -9 | 94 | 86 | 100
O=C(CC1=NS(=O)(=O)c2ccccc2N1)Nc1ccccc1 | -18 | 68 | 53 | 106
CCOC(=O)c1c(NC(=O)C2Cc3ccc(C)cc3C(=O)O2)sc2c1CCCC2 (stereo not given) | -14 | . | . | 103
CCOC(=O)c1c(NC(=O)c2ccc(Cl)c([N+](=O)[O-])c2)sc(C(=O)Nc2ccccc2C(F)(F)F)c1C | -18 | . | . | 100
CSc1c(C#N)c(-c2ccc(Cl)cc2)nn1C | 8 | 106 | 99 | 105
CC(C)CNC(=O)CN1CCN(c2cc(C(=O)O)c3cc(NC(=O)C4CCC4)ccc3n2)CC1 | -42 | . | . | 106
c1csc(C2Nc3ccccc3-n3cccc32)c1 (stereo not given) | -20 | 71 | 85 | 101
CCOc1ccccc1NC(=O)c1cc2cc3cc(C)ccc3nc2s1 | . | 88 | 88 | 101
O=C(NCc1ccccc1)c1cc2ccccn2n1 | 3 | 107 | 87 | 103
O=S(=O)(NCc1ccc2c(c1)CCO2)c1ccccc1 | -2 | 99 | 99 | 100
CCCCn1c(COc2cccc(OC)c2)nc2ccccc21 | -16 | 90 | 82 | 101
O=C(NCc1cc(F)cc2c1OCOC2)c1cnc2ccccc2n1 | -15 | 112 | 99 | 88
CCOC(=O)CCN1C(=O)CN(C)CC1=O | -20 | 86 | 93 | .
CCCCC(=O)NC1CC(=O)N(c2ccc3c(c2)OCCO3)C1 (stereo not given) | . | 92 | 100 | 101&100
Nc1ccc(-n2nncc2C23CC4CC(CC(C4)C2)C3)cc1 | -3 | 90 | 79 | .
COc1ccc(-c2nonc2NC(=O)COc2cc(C)ccc2C(C)C)cc1C | -10 | . | . | 100
Cc1ccc(CNC(=O)CN2C(=O)COc3ccc(S(=O)(=O)N4CCC(C)CC4)cc32)cc1 | 18 | 100 | 70 | 106
COc1ccc(-c2nnc(SCc3cc(=O)n4cc(Br)ccc4n3)n2N)cc1OC | -85 | 111 | 101 | .
CC(=O)Nc1ccc(NC(=O)C2CCN(S(=O)(=O)c3cc(-c4noc(C)n4)sc3C)CC2)cc1 | 10 | . | . | 110
CC(C)n1c(=O)c(=O)[nH]c2ccccc21 | -34 | . | . | 95

# Additional results follow.
SMILES | HCMV NEC inh | Sa growth 42C | Sa growth 42C second temp | GIV Gai3 FP
Cc1ccc2oc(C(=O)OC(CN(C)C)CN(C)C)cc2c1 | -10 | 120 | 83 | 103
Cc1cc(S(=O)(=O)Nc2cccnc2)c(C)s1 | -11 | 90 | 88 | 114
COc1cccc(NC(=O)c2ccc3[nH]c(C)cc(=O)c3c2)c1 | 6 | 109 | 88 | 105
CC(C)(C)c1[nH]nc2c1C(c1ccccc1OC(=O)N1CCOCC1)C(C#N)=C(N)O2 (stereo not given) | -26 | . | . | 105
C=CCNC(=O)CCc1nc(-c2cc3ccc(C)cc3[nH]c2=O)no1 | -36 | . | . | 106
Cc1c(NC(=O)C2CCCC2)c(=O)n(-c2ccccc2)n1C | -8 | 88 | 82 | .
Cc1cc(Cl)ccc1OCC(=O)OCC(=O)N1CCC(C(N)=O)CC1 | 1 | 104 | 89 | .
O=C(COC(=O)C1c2ccccc2Oc2ccccc21)NCc1ccco1 | 6 | 100 | 98 | .
COc1cc(C2C(C#N)=C(N)Oc3n[nH]c(C(C)(C)C)c32)cc(OC)c1OC(C)=O (stereo not given) | -26 | . | . | 96
CCN(Cc1ccccc1)C(=O)Cn1c(=O)n(-c2ccc(OC)cc2OC)c(=O)c2c(C)c(C)sc21 | -5 | 93 | 86 | 105
CC(C)CNCC(=O)Nc1ccc(S(N)(=O)=O)cc1 | -35 | 82 | 95 | .
Cc1cccc(/C=C2\Sc3ccc(C(=O)NCCC(C)C)cc3N(C)C2=O)c1 | . | 110 | 80 | 103
CC1CN(C(=O)CCC(=O)NCc2ccccc2)c2cc(Cl)ccc2O1 (stereo not given) | 43 | 90 | 84 | 97
COc1ccc(N(Cc2cccs2)C(=O)CSc2n[nH]c(-c3cccs3)n2)cc1 | -11 | 63 | 83 | .
NS(=O)(=O)c1ccc(CCn2c(-c3ccccc3)nc(=S)c3c2CCCC3)cc1 | . | 93 | 97 | 97
COc1ccc(-c2cn3c(n2)sc2cc(C(=O)NC4CCCCC4)ccc23)cc1 | . | 125 | 89 | 109
CCCc1nnc(SCC(=O)N2c3ccccc3Sc3ccccc32)o1 | -1 | 67 | 35 | 102
Cc1csc2c(SCC(O)C(F)(F)F)ncnc12 (stereo not given) | 12 | 104 | 95 | 99
COc1cccc(NC(=O)c2sc3nc(C)c(C(=O)Nc4ccc(C)cc4C)c(-c4ccc(C)o4)c3c2N)c1 | -12 | 100 | 84 | 106
O=c1c2cn[nH]c2[nH]c(=S)n1-c1cccc(C(F)(F)F)c1 | 12 | 101 | 101 | 100
Cc1ccc(NC(=O)Cn2c(=O)n(Cc3nc(-c4ccccc4)no3)c(=O)c3ccccc32)c(C)c1 | . | 106 | 91 | 102
Cc1ccccc1Nc1nc(N)nc(COC(=O)C2CCN(C(=O)c3ccc(F)cc3)CC2)n1 | -27 | 101 | 92 | .
O=C1C[C@H](N2C(=O)c3ccccc3S2(=O)=O)C2CO[C@@H]1O2 | -12 | 88 | 64 | .
Cc1cccc(C2Sc3ccccc3N=C3c4ccccc4C(=O)C32)c1 (stereo not given) | -8 | 129 | 99 | .
Oc1ccc(-c2cccc(-c3ccc(O)cc3)c2)cc1 | 4 | 98 | 60 | 87
CCOc1ccc(N(CC(=O)NCc2ccccc2Cl)S(=O)(=O)c2c(C)[nH]c(=O)[nH]c2=O)cc1 | -2 | 94 | 84 | 102
CN1CCN(S(=O)(=O)c2ccc(NC(=O)COc3ccccc3Cl)cc2)CC1 | 13 | 87 | 77 | 105
COC(CN(C)C(=O)c1ccc(CS(=O)(=O)c2ccccc2C)o1)OC | . | 88 | 79 | 109
CCOC(=O)c1c(CSc2ccc(C)cc2)n(C)c2ccc(O)cc12 | 6 | . | . | 98
CC(=O)N1CCC(n2nc(-c3ccccc3)oc2=O)CC1 | -1 | 103 | 102 | 111
C=CCNC(=O)CSc1nc2c(cnn2CCO)c(=O)[nH]1 | -11 | . | . | 107
CCOC(=O)c1c(C)noc1-c1ccc(Br)o1 | -38 | 103 | 91 | 106
O=C(NCc1ccccc1Cl)c1cc(-c2ccccn2)n[nH]1 | -13 | . | . | 106
Cc1ccc(C)n1-c1cc(Cl)ccc1C(=O)O | 80* | 42 | 58 | 60*
O=S(=O)(NCCc1c[nH]c2ccccc12)c1ccc(Cl)c(Cl)c1 | -10 | 94 | 67 | 99
Cc1ccc(-n2cnc3cc(N=Cc4ccc(N(C)C)cc4)ccc32)cc1 | . | 108 | 84 | 104
CCOc1ccc(S(=O)(=O)Nc2ccc3oc4c(c3c2)CC(C)CC4)cc1 (stereo not given) | -28 | 90 | 93 | 104
Cc1ccc(C(=O)CNc2cccc3ccccc23)cc1 | 1 | 98 | 92 | .
COc1cccc(CNc2ccc3c(c2)ncn3C)c1 | 2 | 123 | 103 | 109
CN(C)/C=C(\Sc1nnc(N)s1)C(=O)Nc1ccc(F)c(F)c1F | -22 | 85 | 89 | 100
CCn1cc(C(=O)OCC(=O)N2CCN(S(=O)(=O)c3ccc(Cl)cc3)CC2)c(=O)c2ccc(C)nc21 | -32 | 87 | 90 | .
CCCN1C(=O)C(O)(C/C(C)=N\O)c2ccccc21 (stereo not given) | -16 | 105 | 84 | .
O=C(NC1CCCC1)c1ccc(Nc2cc(-c3ccc(F)cc3)ncn2)cc1 | -16 | . | . | 107
CC(/C(O)=C(\C#N)c1nc2ccccc2n1C)N1C(=O)c2ccccc2C1=O (stereo not given) | -10 | 95 | 100 | .
Cc1ccc(N2C(=O)CC(C3=C(N4CCOCC4)CCCC3)C2=O)cc1 (stereo not given) | -10 | 108 | 93 | 107
O=C(c1cnn(C(=O)COc2ccccc2F)c1)c1cc(F)ccc1O | 1 | 97 | 90 | .
CCCCOC(=O)Nc1nc(C)c(C(=O)OCC)s1 | -32 | . | . | 101
O=C(NCCN1CCN(c2ccccc2)CC1)c1cccc(Cl)c1 | -12 | . | . | 106
COc1ccc(C(=O)CSc2nc(C)cc(C)n2)cc1C | 15 | 106 | 91 | 105
Cc1cc(C)c(NC(=O)c2cc(S(=O)(=O)NCCC3=CCCCC3)ccc2F)c(C)c1 | . | 87 | 92 | 99

# Three compounds picked at random from the list so far, as already listed:
SMILES | HCMV NEC inh | Sa growth 42C | Sa growth 42C second temp | GIV Gai3 FP
Cc1ccc(N2C(=O)CC(C3=C(N4CCOCC4)CCCC3)C2=O)cc1 (stereo not given) | -10 | 108 | 93 | 107
CCCN1C(=O)C(O)(C/C(C)=N\O)c2ccccc21 (stereo not given) | -16 | 105 | 84 | .
CCn1cc(C(=O)OCC(=O)N2CCN(S(=O)(=O)c3ccc(Cl)cc3)CC2)c(=O)c2ccc(C)nc21 | -32 | 87 | 90 | .
